# Bioassay records (PubChem)
# Vaccinia inh: blocks a specific stage of Vaccinia orthopoxvirus infection, primary screen, cell-based, single point. 89,000 tested, 0.01% active. AID 1053133, 2014. activity change (mCherry), % (no concentration beside the values). Vaccinia-infected cells, mCherry/Venus stage reporter fluorescence; active compounds read low; some inactives read as strong as hits;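 active = mCherry past -33% and 40 or more points under the early reporter, replicates agreeing; inconclusive = past -33% without that gap or agreement; tested in A549 cells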;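 also: scaled between vehicle wells and reference inhibitor wells; 23 nL library stock went into each well; one replicate is shown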
# Vaccinia inh Venus: second read-out of Vaccinia inh, no call of its own (marks repeat the call); activity change (Venus), %; measured here: Venus reporter, other viral stage;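 negative = less Venus signal; first of two replicates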
# The depositor's hits bear a star; ? = inconclusive; . = not tested or not shown; & = joins results of further samples. Only part of the results is shown; rates above refer to the full screens.
smiles,Vaccinia inh,Vaccinia inh Venus
COc1ccc2c3c([nH]c2c1)[C@@H](CO)N(Cc1cccnc1)CC31CN(C(=O)CN(C)C)C1,34.1,31.9
COc1ccccc1C(=O)N1C[C@H]2[C@@H](c3ccccc31)[C@@H](CO)N2C(=O)C1CCOCC1,-8.7,-2.2
C[C@H](CO)N1C[C@H](C)[C@H](CN(C)S(C)(=O)=O)Oc2ccc(NC(=O)C3CCCCC3)cc2CC1=O,11.4,5.1
COc1ccc2c3c(n(C)c2c1)[C@H](CO)N(CC1CC1)CC31CCN(C(=O)CN2CCOCC2)CC1,6.0,0.8
C[C@H]1CN([C@@H](C)CO)C(=O)c2cc(NC(=O)Cc3ccccc3)ccc2O[C@H]1CN(C)S(=O)(=O)c1ccc(Cl)cc1,-24.7,-16.6
CCCNC(=O)N(C)C[C@@H]1Oc2ncc(C#Cc3ccccc3F)cc2C(=O)N([C@@H](C)CO)C[C@H]1C,2.3,-1.5
CCC(=O)N1CC[C@@H]2[C@H]1c1cc(-c3ccc(C(=O)N(C)C)cc3)ccc1N[C@@H]2CO,-23.3,-14.1
CC=Cc1ccc2n(c1=O)C[C@H]1[C@H](CO)[C@@H](C(=O)NCCC)[C@@H]2N1CCC(F)(F)F (mixture of isomers),17.9,9.7
C[C@@H]1CN([C@@H](C)CO)C(=O)c2cc(NC(=O)Nc3ccccc3)ccc2O[C@@H](C)CCCCO[C@@H]1CN(C)S(=O)(=O)c1cccs1,16.2,12.5
Cc1ccc(S(=O)(=O)N(C)C[C@@H]2Oc3ncc(-c4ccncc4)cc3C(=O)N([C@@H](C)CO)C[C@@H]2C)cc1,7.0,8.3
C[C@@H]1CN([C@H](C)CO)C(=O)CCCn2cc(nn2)CO[C@H]1CN(C)C(=O)Nc1ccc(-c2cccs2)cc1,-12.2,-9.5
C[C@H]1CN([C@@H](C)CO)C(=O)c2ccccc2-c2ccccc2CO[C@H]1CN(C)C(=O)[C@@H](Cc1ccccc1)N(C)C,?,.
COc1ccc2c3c([nH]c2c1)[C@@H](CO)N(Cc1ccccc1)CC31CCN(CC2CC2)CC1,?,.
COc1ccc(NC(=O)Nc2ccc3c(c2)[C@H]2C[C@@H](CC(=O)N(C)C)O[C@H](CO)[C@H]2O3)cc1,9.4,11.7
COc1ccc(S(=O)(=O)N(C)C[C@H]2Oc3ccc(NC(=O)CCCCCC(=O)Nc4ccccc4N)cc3C(=O)N([C@H](C)CO)C[C@@H]2C)cc1,-5.0,0.6
Cc1noc(C)c1NC(=O)Nc1ccc2c(c1)C(=O)N([C@@H](C)CO)C[C@H](C)[C@@H](CN(C)C(=O)Nc1c(C)noc1C)OCCCC[C@H](C)O2,4.1,-0.1
C[C@@H](O)C#Cc1ccc([C@H]2[C@H](CO)N3CCCCN(CC4CC4)C[C@@H]23)cc1,19.7,15.9
C[C@H](CO)N1C[C@H](C)[C@@H](CN(C)CC2CCCCC2)Oc2ccc(NC(=O)CCN3CCOCC3)cc2C1=O,13.6,7.3
C[C@H](CO)N1C[C@H](C)[C@@H](CN(C)Cc2ccncc2)Oc2ccc(NC(=O)Nc3ccc(C(F)(F)F)cc3)cc2CC1=O,?,.
CC(C)NC(=O)Nc1ccc2c(c1)C(=O)N([C@H](C)CO)C[C@H](C)[C@H](CN(C)CC1CC1)O2,1.7,-2.1
O=C(N[C@H]1CC[C@H](CCNC(=O)C2CC2)O[C@H]1CO)c1ccccn1,-4.7,-1.2
O=C(C[C@H]1C=C[C@H](NC(=O)c2ccccc2)[C@H](CO)O1)Nc1ccc(-c2ccccc2)cc1,-33.0,-25.1
CCCNC(=O)N1[C@@H](CO)[C@@H](c2ccccc2)C12CN(C(=O)c1cccnc1)C2,-4.1,-0.4
C/C=C/c1ccc([C@@H]2[C@H](CO)N(C(C)=O)C23CN(C(=O)c2cnccn2)C3)cc1,-1.7,3.4

# Part of the list above in order of count of non-hydrogen atoms, ascending.
smiles,Vaccinia inh,Vaccinia inh Venus
CCCNC(=O)N1[C@@H](CO)[C@@H](c2ccccc2)C12CN(C(=O)c1cccnc1)C2,-4.1,-0.4
O=C(C[C@H]1C=C[C@H](NC(=O)c2ccccc2)[C@H](CO)O1)Nc1ccc(-c2ccccc2)cc1,-33.0,-25.1
C[C@H](CO)N1C[C@H](C)[C@@H](CN(C)CC2CCCCC2)Oc2ccc(NC(=O)CCN3CCOCC3)cc2C1=O,13.6,7.3
C[C@H](CO)N1C[C@H](C)[C@@H](CN(C)Cc2ccncc2)Oc2ccc(NC(=O)Nc3ccc(C(F)(F)F)cc3)cc2CC1=O,?,.

# The list continues:
smiles,Vaccinia inh,Vaccinia inh Venus
COc1ccc(S(=O)(=O)Nc2ccc3c(c2)C(=O)N([C@H](C)CO)C[C@@H](C)[C@@H](CN(C)C(=O)c2ccncc2)OCCCC[C@@H](C)O3)cc1,16.5,3.7
C[C@H]1CN([C@@H](C)CO)C(=O)Cc2cc(N(C)C)ccc2O[C@H]1CN(C)Cc1ccc(Oc2ccccc2)cc1,-26.9,-15.1
CN1[C@@H](CO)[C@@H]2c3ccccc3N(C(=O)Nc3ccccc3F)C[C@@H]21,-4.3,-2.4
C[C@@H](NC(=O)C[C@H]1CC[C@H]2[C@@H](COc3ccc(NC(=O)C4CCOCC4)cc3C(=O)N2C)O1)c1ccccc1,8.5,-1.7
C/C=C/c1cnc2c(c1)C(=O)N([C@@H](C)CO)C[C@@H](C)[C@H](CN(C)Cc1ccc3c(c1)OCO3)O2,-4.6,-7.0
C[C@@H]1CCCCO[C@@H](CN(C)S(=O)(=O)c2ccccc2)[C@H](C)CN([C@@H](C)CO)C(=O)c2cc(NS(=O)(=O)c3ccc(Cl)cc3)ccc2O1,?,.
COc1ccc(NC(=O)N(C)C[C@H]2Oc3c(NS(C)(=O)=O)cccc3C(=O)N([C@@H](C)CO)C[C@H]2C)cc1,25.8,14.5
COCC(=O)N(C)C[C@H]1Oc2ncc(C3=CCCCC3)cc2C(=O)N([C@@H](C)CO)C[C@H]1C,4.4,14.6
CO[C@H]1CN(C)C(=O)c2cc(NC(=O)CC(F)(F)F)ccc2OC[C@H](C)N(CCC(F)(F)F)C[C@@H]1C,-3.4,0.1
O=C(C[C@H]1CC[C@@H](NC(=O)Nc2ccc(C(F)(F)F)cc2)[C@H](CO)O1)NCc1cccc(F)c1,21.8,9.2
CO[C@H]1CN(C)C(=O)c2ccc(NC(=O)C3CCCC3)cc2OC[C@@H](C)N(C(=O)CC2CC2)C[C@H]1C,-3.7,3.5
C[C@@H]1CN([C@@H](C)CO)C(=O)c2cc(NC(=O)Nc3ccc4c(c3)OCO4)ccc2O[C@@H](C)CCCCO[C@H]1CN(C)S(=O)(=O)c1ccccc1,16.3,9.1
OC[C@H]1[C@H](c2ccc(C#CC3(O)CCCC3)cc2)[C@H]2CN(Cc3ccncc3)CCCCN21,7.7,8.9
Cc1ccc(OC(=O)N(C)C[C@@H]2OCc3cn(nn3)CCCC(=O)N([C@H](C)CO)C[C@H]2C)cc1,1.7&5.9,5.3&6.2
C[C@@H]1CCCCO[C@@H](CN(C)Cc2ccncc2)[C@H](C)CN([C@@H](C)CO)C(=O)c2cc(NC(=O)c3ccccc3)ccc2O1,-27.5,-15.1
O=C(Nc1cc(F)ccc1F)N1CC(=O)N2[C@H](CO)[C@@H](c3ccc(/C=C/c4ccccc4)cc3)[C@@H]2C1,-21.2,-9.6

# One compound at a time, from the list above. Order of screens: Vaccinia inh	Vaccinia inh Venus
# `OC[C@H]1[C@H](c2ccc(C#CC3(O)CCCC3)cc2)[C@H]2CN(Cc3ccncc3)CCCCN21` is listed as 7.7	8.9
# `C[C@@H]1CN([C@@H](C)CO)C(=O)c2cc(NC(=O)Nc3ccc4c(c3)OCO4)ccc2O[C@@H](C)CCCCO[C@H]1CN(C)S(=O)(=O)c1ccccc1` is listed as 16.3	9.1
# `CO[C@H]1CN(C)C(=O)c2cc(NC(=O)CC(F)(F)F)ccc2OC[C@H](C)N(CCC(F)(F)F)C[C@@H]1C` is listed as -3.4	0.1

# Further records follow:
smiles,Vaccinia inh,Vaccinia inh Venus
COc1ccc(S(=O)(=O)Nc2ccc3c(c2)C(=O)N([C@@H](C)CO)C[C@@H](C)[C@@H](CN(C)Cc2ccc(C(F)(F)F)cc2)OCCCC[C@@H](C)O3)cc1,?,.
C[C@H]1CN([C@@H](C)CO)S(=O)(=O)c2ccc(C#CC3CC3)cc2O[C@@H]1CN(C)C(=O)CN(C)C,-15.6,-6.5
C[C@H]1CN([C@@H](C)CO)C(=O)c2cc(NC(=O)CCCN(C)C)ccc2O[C@@H]1CN(C)Cc1ccccc1,1.8,-3.8
Cc1ccc(S(=O)(=O)N[C@@H]2C=C[C@@H](CC(=O)NCCc3ccncc3)O[C@H]2CO)cc1,9.6,8.9
C[C@@H]1CCCCO[C@H](CN(C)S(=O)(=O)c2cccs2)[C@@H](C)CN([C@@H](C)CO)C(=O)c2cc(N(C)C)ccc2O1,7.1,6.8
C[C@@H]1CN([C@H](C)CO)C(=O)c2cc(C#CC3CCCC3)cnc2O[C@H]1CN(C)C(=O)Cc1ccccn1,-6.8,-4.0
CO[C@H]1CN(C)C(=O)c2ccc(NC(C)=O)cc2OC[C@@H](C)N(C(=O)Cc2ccccn2)C[C@H]1C,14.1,13.1
C[C@H]1CCCCO[C@H](CN(C)C(=O)C2CCCCC2)[C@@H](C)CN([C@@H](C)CO)C(=O)c2cc(NC(=O)Cc3ccccc3)ccc2O1,?,.
COC(=O)C[C@H]1CC[C@@H](N)[C@@H](CO)O1,6.9,13.9
CN1C(=O)c2cc(NS(=O)(=O)c3ccccc3Cl)ccc2OC[C@@H]2O[C@H](CC(=O)O)CC[C@@H]21,6.4,5.3
COC(=O)c1ccc(CN2CC(=O)N3[C@H](CO)[C@H](c4ccc(-c5cccnc5)cc4)[C@H]3C2)cc1,-6.8,-1.4
CC=Cc1ccc2n(c1=O)C[C@H]1N[C@@H]2[C@@H](C(=O)NC2CCCCC2)[C@@H]1CO (mixture of isomers),14.2,12.3
C[C@H](CO)N1C[C@H](C)[C@@H](CN(C)C(=O)c2cnccn2)Oc2ncc(-c3cccc(F)c3)cc2C1=O,31.1,-0.6
COC(=O)N(C)C[C@H]1OCc2ccccc2-c2ccccc2C(=O)N([C@@H](C)CO)C[C@@H]1C,25.1,14.3
Cc1noc(C)c1NC(=O)N(C)C[C@@H]1Oc2c(NS(=O)(=O)c3ccccc3)cccc2C(=O)N([C@H](C)CO)C[C@@H]1C,25.7,30.1
O=C(C[C@@H]1CC[C@H](NS(=O)(=O)c2ccccc2)[C@H](CO)O1)N1CCC(Cc2ccccc2)CC1,-1.9,-15.8
Cc1noc(C)c1NC(=O)N(C)C[C@H]1Oc2c(NC(=O)NC3CCCCC3)cccc2C(=O)N([C@@H](C)CO)C[C@@H]1C,9.4,-4.9
O=C(C[C@@H]1C=C[C@@H](NC(=O)c2ccncc2)[C@H](CO)O1)NCC1CC1,6.0,9.1
O=C(C[C@H]1C[C@@H]2c3cc(NC(=O)C4CCC4)ccc3O[C@@H]2[C@H](CO)O1)NCCc1ccccc1,-5.2,1.3
C[C@@H]1CCCCO[C@H](CN(C)C(=O)NC2CCCCC2)[C@H](C)CN([C@H](C)CO)C(=O)c2cc(NC(=O)Nc3ccc(F)cc3)ccc2O1,-4.2,-3.1
C[C@@H]1CN([C@@H](C)CO)C(=O)c2cc(-c3ccc(F)cc3)cnc2O[C@H]1CN(C)CC1CCCCC1,?,.
COCC(=O)N1C[C@H](C)[C@H](OC)CN(C)C(=O)c2ccc(NC(=O)C3CCC3)cc2OC[C@H]1C,7.5,2.7
C[C@H](CO)N1C[C@H](C)[C@H](CN(C)CC2CCCCC2)Oc2c(NC(=O)Nc3ccc(C(F)(F)F)cc3)cccc2C1=O,?,.
CNC[C@@H]1OCCCC[C@@H](C)Oc2ccc(NS(=O)(=O)c3cccs3)cc2C(=O)N([C@H](C)CO)C[C@@H]1C,18.4,-1.3
C[C@H]1CN([C@@H](C)CO)C(=O)Cc2cc(NC(=O)Cc3ccccc3)ccc2O[C@H]1CN(C)C(=O)Nc1cccc2ccccc12,0.5,10.5
CCCC(=O)Nc1ccc2c(c1)OC[C@H](C)N(C)C[C@H](C)[C@H](OC)CN(C)C2=O,-3.8,-6.0
COc1ccc(C(=O)N2C[C@H]3[C@@H](c4ccccc42)[C@H](CO)N3Cc2ccccc2Cl)cc1,2.2,6.9
Cc1noc(C)c1NC(=O)Nc1cccc2c1O[C@H](CN(C)C(=O)Nc1c(C)noc1C)[C@@H](C)CN([C@H](C)CO)C2=O,18.2,15.8
COc1ccc2c3c(n(C)c2c1)[C@@H](CO)N(Cc1cccnc1)CC31CCN(C(=O)c2cccnc2)CC1,16.7,6.7
CO[C@H](CN(C)C(=O)C1CCOCC1)[C@H](C)CN([C@H](C)CO)S(=O)(=O)c1ccccc1,18.3,17.2
C[C@@H]1CN([C@@H](C)CO)C(=O)c2cc(C#CC3(O)CCCC3)cnc2O[C@H]1CN(C)C,19.8,10.9
COc1ccc(CN(C)C[C@H]2Oc3c(NS(C)(=O)=O)cccc3C(=O)N([C@@H](C)CO)C[C@@H]2C)cc1,18.3,18.6
Cc1noc(C)c1NC(=O)Nc1ccc2c(c1)CC(=O)N([C@@H](C)CO)C[C@H](C)[C@H](CN(C)CC1CC1)O2,3.7,-1.0
c1cc(-c2ccc(C3[C@H]4CNC[C@@H]3N4CC3CCCC3)cc2)ccn1 (stereo partly drawn),-2.5,8.6
O=C(C[C@H]1C=C[C@H](NC(=O)CN2CCOCC2)[C@H](CO)O1)NC1CCC1,3.5,4.9
C[C@@H]1CN([C@@H](C)CO)C(=O)c2cc(NC(=O)Cc3ccccc3)ccc2O[C@@H](C)CCCCO[C@@H]1CN(C)Cc1ccc(C(=O)O)cc1,27.0,10.6
